Screening results from PubChem BioAssay.
Ecoli rRNA inh: selective bacterial rRNA inhibition in E. coli. E. coli WT GFP vs humanized-ribosome RFP mutants, fluorescence, 24 h; stronger effect = lower value; DMSO median 0, no signal -100. GFP signal change (wild-type ribosome), % (test concentration not listed). 1.6% of 350,000 active. AID 720706;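 active = significant combined selectivity score with lowered wild-type GFP, culture density cut under 30%, mutant RFP and density less affected; inactive = any of these conditions unmet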; note: one replicate is shown; some compounds called inactive have numbers as strong as hits
B2AR ag: activates human beta-2 adrenergic receptor causing internalization; P07550; AID 504454; Am2.2-beta2AR cells, FAP receptor internalization, flow cytometry; reference of the scale not given here; response, % (concentration not given with the values); 0.43% of 340,000 active;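 active = response above a set limit, near 3 SD of response in nonfluorescent compounds, cut at about 42% in these data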;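 note: stock transfer was 100 nL into about 11 µL; a reference agonist was the positive control; negative values mostly stem from fluorescent compounds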
Target sequence (P07550 whole entry, looked up): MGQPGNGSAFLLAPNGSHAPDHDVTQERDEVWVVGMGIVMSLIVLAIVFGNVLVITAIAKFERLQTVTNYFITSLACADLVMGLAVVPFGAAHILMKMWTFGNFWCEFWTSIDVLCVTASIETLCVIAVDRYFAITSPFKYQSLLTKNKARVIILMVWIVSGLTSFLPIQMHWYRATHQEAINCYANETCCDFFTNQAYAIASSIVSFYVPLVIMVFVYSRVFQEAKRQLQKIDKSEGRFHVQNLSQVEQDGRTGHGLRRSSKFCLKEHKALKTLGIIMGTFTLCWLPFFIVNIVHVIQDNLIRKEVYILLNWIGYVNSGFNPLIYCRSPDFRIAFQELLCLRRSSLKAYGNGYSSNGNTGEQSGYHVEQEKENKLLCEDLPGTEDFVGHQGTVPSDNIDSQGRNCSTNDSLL
Calb FLC: C. albicans growth modulation with fluconazole. C. albicans CaCi-2 (fluconazole-resistant clinical isolate) + fluconazole, Alamar Blue growth, 48 h. growth inhibition, % (test concentration not listed). AID 1979. 0.57% of 300,000 active;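 active = most replicates above 75%; inconclusive = exactly half above 75%; inactive = most below 75%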;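 note: all wells also contain fluconazole at 8 µg/ml as a sub-toxic cotreatment; 0% = median of DMSO wells and 100% = median of geldanamycin control wells; wells of about 8 µL received 7.5 nL stock; the first replicate is given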
LANA-H2B inh: blocks KSHV LANA binding to histone H2A/H2B; inhibition, % (concentration not given with the values); Q9QR71; 0.6% of 320,000 active; cell-free LANA-H2A/H2B peptide, fluorescence polarization; in the data active = inhibition mostly above about 10%, no sharp cut-off; inactive = mostly below about 6.7%;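 note: stock transfer was 7.5 nL into about 10 µL; 0% = median of vehicle wells and 100% = median of positive control wells; one replicate is shown; the record names a cut of 25% in any replicate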
Beta apoptosis: blocks beta cell apoptosis. INS-1E cytokine-induced death, ATP luminescence, 48 h; percent of positive-control rescue, neutral wells zero. protection from apoptosis, % (no concentration beside the values). 0.8% of 300,000 active. AID 435005;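 active = all replicates at 75% or more, or half of them and the mean; inconclusive = half reach 75% but not the mean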;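 note: 0% = cytokine-treated negative control wells and 100% = positive control rescue; higher means more ATP so stronger rescue from cytokine killing; wells of about 40 µL received 100 nL stock; the first replicate is given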
A1 inh: inhibitors of the anti-apoptotic protein A1, read as caspase activation | caspase activation, % (concentration not given with the values) | 0.066% of 330,000 active | MEF A1-2A-BIM cells, Caspase-Glo 3/7 luminescence, 3 h; percent of clofoctol response, vehicle zero | AID 2462;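 active = over half of replicate activation scores above 10%, or exactly half above 10 with the replicate mean above 10; inconclusive = replicate mean below 10 yet half the replicates above 10; inactive = over half of replicates below 10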;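 note: wells of about 30 µL received 50 nL stock; many hits fall short of the cut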
ALR inh: human ALR oxidase inhibition via reduced H2O2 | P55789 | 3.8% of 290,000 active | inhibition, % (concentration not given with the values) | purified ALR, DTT oxidation, H2O2 HRP-luminol luminescence;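 active = mean and each replicate at 75% or more; inconclusive = only one of the two met; inactive = neither met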;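 note: stock transfer was 7.5 nL into about 7.5 µL; 0% = neutral wells and 100% = wells with inactivated enzyme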
Target sequence (P55789 whole entry, looked up): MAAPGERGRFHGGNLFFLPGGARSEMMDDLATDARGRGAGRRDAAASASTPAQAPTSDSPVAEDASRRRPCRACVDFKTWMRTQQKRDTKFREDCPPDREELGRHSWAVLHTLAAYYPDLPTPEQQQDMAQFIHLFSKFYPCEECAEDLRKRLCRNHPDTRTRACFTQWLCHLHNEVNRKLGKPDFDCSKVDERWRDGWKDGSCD
T cruzi inh: blocks replication of Trypanosoma cruzi; T. cruzi beta-gal in NIH3T3, luminescence, 90 h; inhibition, % (test concentration not listed); 1.4% of 300,000 active; AID 1885;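 active = mean inhibition across valid replicates above about 55%, limit read from the data; inconclusive = mean below that limit but half or more replicates reach it; inactive = mean below it, under half of replicates reach it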;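 note: signal also drops with host cell toxicity which is not excluded here; 0% = plate median of DMSO wells and 100% = zero luminescence signal; higher percent means less beta-gal luminescence so fewer parasites; stock transfer was 50 nL into about 50 µL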
Ecoli rRNA inh OD600: second read-out of Ecoli rRNA inh, no call of its own (marks repeat the call); OD600 change, %; measured here: OD600 growth;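 optical density of the mix in the first replicate; 0 = DMSO median and -100 = no signal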
Ecoli rRNA inh RFP: further read-out of Ecoli rRNA inh, marked with its call; RFP signal change, %; measured here: RFP humanized mutant strains;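 first replicate; 0 = DMSO median and -100 = no signal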
Active calls of the source: *; ? = inconclusive; nt = not tested or not shown.

| entry | Compound | Ecoli rRNA inh | Ecoli rRNA inh OD600 | Ecoli rRNA inh RFP | B2AR ag | Calb FLC | LANA-H2B inh | Beta apoptosis | A1 inh | ALR inh | T cruzi inh |
| --- | --- | --- | --- | --- | --- | --- | --- | --- | --- | --- | --- |
| 1 | COc1ccc(NC(=O)NC2CCCc3ccccc32)cc1 (configuration not stated) | 15 | 21 | 3.0 | -11 | -22 | -6.6 | -14 | 0.9 | -20 | -22 |
| 2 | CCOc1ccc(N2C(=O)c3cccnc3C2Nc2ccc(F)cc2)cc1 (configuration not stated) | nt | nt | nt | -19 | -11 | 5.3 | -6 | 0.1 | -1 | -19 |
| 3 | O=C(NCCN1C(=O)S/C(=C\c2ccc(Cl)cc2)C1=O)C1=COCCO1 | nt | nt | nt | -5 | nt | 4.4 | 2 | 0.5 | -1 | nt |
| 4 | COc1cc(NC(=O)c2cc3c(C)nc4ccccc4c3o2)cc(OC)c1OC | -4 | -5 | 5.4 | 18 | -2 | -1.2 | 8 | -0.3 | nt | -3 |
| 5 | CCc1c(C(=O)Nc2cc(C)ccc2OC)[nH]c(C)c1C(C)=O | nt | nt | nt | -2 | -32 | -6.1 | 13 | 1.5 | -3 | 26 |
| 6 | O=C(Cc1ccccc1)N/N=C/c1cc(Br)cs1 | 6 | 8 | -7.4 | -9 | -54 | -3.0 | 0 | -1.5 | -22 | -16 |
| 7 | O=C(NCC(=O)N1CCN(c2cccc(Cl)c2)CC1)c1ccc(Br)o1 | -5 | -5 | -0.6 | 1 | nt | 0.2 | 2 | -0.7 | 32 | -3 |
| 8 | CCOC(=O)c1nc(C)n(-c2cc(Cl)cc(Cl)c2)n1 | nt | nt | nt | 5 | 8 | 2.0 | -4 | 0.2 | -2 | -21 |
| 9 | O=C(Nc1ccc(-c2cscn2)cc1)C1CCCN(Cc2ccc(CO)o2)C1 (configuration not stated) | -1 | 0 | 0.8 | -21 | 14 | 22* | -1 | 0.0 | 1 | 7 |
| 10 | CCOC(=O)Cn1c(=O)c2c(nc3n2CC(C)CN3Cc2ccccc2)n(C)c1=O (configuration not stated) | 1 | 4 | -1.2 | -3 | -5 | 1.2 | 5 | -0.3 | 1 | -10 |
| 11 | Cc1nnc(C)c2c(C)n(-c3ccccc3N)c(C)c12 | 18 | 18 | 1.5 | 6 | -4 | 2.6 | -2 | 0.1 | -46 | 8 |
| 12 | O=C(CSc1nnc(CNc2ccc(F)cc2)n1Cc1ccco1)NC1CC1 | nt | nt | nt | 20 | 2 | 5.7 | -6 | -0.8 | 5 | 1 |
| 13 | COc1ccc(CNC(=O)CN(Cc2ccc(OC)cc2)C(=O)CCC(=O)Nc2nccs2)cc1 | 0 | 12 | 1.8 | 3 | 0 | 3.8 | 1 | 0.1 | -1 | 17 |
| 14 | NS(=O)(=O)c1ccc(Nc2nc(-c3ccc(O)cc3O)cs2)cc1 | nt | nt | nt | -9 | 7 | -3.7 | 4 | 1.2 | 99* | -10 |
| 15 | CCOC(=O)C1=C(N)N2C(=O)C(C)SC2=C(C(=O)OCC)C1c1ccc(O)cc1 (configuration not stated) | 0 | 0 | -2.6 | 0 | -3 | 1.1 | -3 | 0.4 | 46 | -8 |
| 16 | Cc1ccc(/C=C/C(=O)N2CCC(Cc3ccccc3)CC2)cc1 | nt | nt | nt | -3 | 4 | 2.9 | -18 | -0.5 | -6 | 9 |
| 17 | CCc1ccc(CN(C(=O)c2cc3ccccc3oc2=O)C2CCS(=O)(=O)C2)cc1 (configuration not stated) | nt | nt | nt | -10 | -7 | 1.1 | -2 | -0.1 | 1 | -5 |
| 18 | CC1CCCN(CCCNC(=O)c2ccc3c(c2)N(Cc2ccc(F)cc2)C(=O)c2ccccc2S3=O)C1 (configuration not stated) | 2 | -7 | 0.4 | 19 | -11 | -1.4 | 0 | 0.6 | -5 | 24 |
| 19 | Cc1cc(C)c(C(=O)NC2CCCc3c2cnn3-c2cccc(C)c2C)o1 (configuration not stated) | 4 | 4 | 0.4 | 5 | 3 | -4.1 | 5 | 0.1 | 4 | 28 |
| 20 | COc1ccc(C(=O)NC(=S)NNC(=O)c2cccnc2)cc1 | -17 | -36 | 0.4 | 0 | -7 | 1.8 | 6 | 1.1 | 99* | -19 |
| 21 | CC(=O)NS(=O)(=O)c1ccc(NC(=O)c2ccc(-n3nc(C)cc3C)cc2)cc1 | 6 | 10 | -0.3 | -1 | 1 | 2.0 | nt | 0.8 | 2 | -19 |
| 22 | CCOC(=O)N1CCN(C(=O)Nc2ccccc2Cl)CC1 | 10 | 2 | -2.4 | 8 | -5 | 1.4 | -5 | -0.3 | -4 | -4 |
| 23 | COC(=O)c1ccc(CSc2nc3cc(Cl)ccc3o2)cc1 | nt | nt | nt | 2 | -17 | -1.0 | -11 | -0.4 | -4 | -1 |
| 24 | Cn1c(=O)c2c(nc(NCC3CCCC(CN)C3)n2Cc2ccc(Cl)cc2Cl)n(C)c1=O (configuration not stated) | 3 | -1 | 3.1 | 5 | -13 | 1.7 | 27 | 0.1 | 17 | -8 |
| 25 | CCc1nnc(N/N=C/c2cc(C)c(C)cc2C)n1N | 15 | 13 | 0.1 | 4 | 4 | -2.0 | 6 | -0.1 | -20 | -11 |
| 26 | NS(=O)(=O)c1ccc(CNC(=O)c2cc(=O)[nH]c3ccccc23)cc1 | 6 | 7 | 2.6 | 6 | 4 | 4.7 | -7 | 0.5 | -3 | -7 |
| 27 | Cc1ccc(-n2c(SCC(=O)NCCN3C(=O)CSC3=O)nnc2-c2ccccc2)cc1C | nt | nt | nt | 11 | -15 | 2.5 | -6 | 0.6 | -14 | 3 |
| 28 | Cc1cc(NC(=O)Cn2ccc([N+](=O)[O-])n2)no1 | 4 | 7 | -0.3 | -5 | -2 | 5.4 | -9 | -0.1 | 1 | -1 |
| 29 | CCOC(=O)CC1=C(C#N)C(c2cccnc2)C(C(=O)OCC)=C(N)O1 (configuration not stated) | nt | nt | nt | 3 | 1 | 1.1 | -12 | 2.2 | 16 | nt |
| 30 | COc1ccc(CCC(=O)Nc2cc3c4c(c2)CCC(=O)N4CCC3)cc1 | -8 | -8 | 4.9 | 4 | -1 | 1.0 | 8 | 2.4 | -6 | -10 |
| 31 | O=C(O)c1cccc(NC(=S)N/N=C/c2cccc(O)c2)c1 | 8 | 10 | -0.5 | 1 | -28 | -0.1 | 2 | ? | 32 | -9 |
| 32 | CCCCNC(=S)N1CCN(C)CC1 | 19 | 7 | 2.5 | 0 | -4 | 6.0 | -9 | -0.2 | 0 | 0 |
| 33 | O=C(NCCCN1CCOCC1)c1cccc(S(=O)(=O)Nc2ccc(F)cc2)c1 | 4 | 3 | 0.1 | -3 | nt | 1.1 | 3 | -0.3 | 0 | nt |
| 34 | FC(F)(F)c1nnc2ccc(Cl)nn12 | 16 | 13 | 0.9 | 4 | ? | -7.6 | -4 | 1.3 | -1 | -2 |
| 35 | CCc1c(C)nc(N2CCN(Cc3ccc4c(c3)OCO4)CC2)[nH]c1=O | 11 | 7 | 0.3 | 7 | -2 | 1.9 | 0 | 2.1 | 0 | 0 |
| 36 | Cc1ccc2cn[nH]c2c1N | -9 | 14 | -4.0 | 13 | 17 | 4.9 | -5 | 1.0 | 85* | 6 |
| 37 | CCN(CC)CCN1C(=O)C(=O)/C(=C(/O)c2ccc3c(c2)CC(C)O3)C1c1ccc(OC)cc1 (configuration not stated) | -5 | -3 | 1.7 | 3 | -1 | 0.6 | -9 | 1.1 | nt | -12 |
| 38 | COc1cc(/C=N/Nc2nncn2N)ccc1OCc1c(C)no[n+]1[O-] | 0 | -5 | -4.1 | 0 | 2 | -3.8 | 7 | -0.3 | -31 | -5 |
| 39 | CCn1c(CNc2ccc(F)cc2)nnc1SCC(=O)OC1CCCCC1 | -1 | -6 | -3.7 | -5 | 9 | -0.3 | 0 | 0.5 | 28 | 4 |
| 40 | COc1ccccc1/C=N\Nc1cn[nH]c(=O)c1Cl | 1 | -5 | -2.6 | -2 | 16 | -3.2 | 4 | 0.4 | 11 | -1 |
| 41 | CCCCOc1cccc(C(=O)N(Cc2cccs2)C2CCS(=O)(=O)C2)c1 (configuration not stated) | nt | nt | nt | -2 | -6 | 3.2 | 1 | 1.7 | -5 | 19 |
| 42 | CCCN1C(=O)C(Cc2nc3ccccc3c(=O)n2-c2ccccc2)c2cc(C)ccc21 (configuration not stated) | -2 | -9 | -9.6 | 4 | -8 | -0.9 | -1 | -1.1 | -17 | 36 |
| 43 | CC1CC(C)CN(C(=O)c2cccc(S(=O)(=O)NCc3ccccc3)c2)C1 (configuration not stated) | -1 | -15 | 5.6 | 6 | nt | 6.6 | -6 | 0.4 | nt | nt |
| 44 | O=C(CCN1C(=O)C2CCCCC2C1=O)Nc1cc(F)ccc1F (configuration not stated) | 3 | 4 | -0.4 | 12 | -5 | -6.2 | -2 | 0.0 | 5 | -16 |
| 45 | N#C/C(=C\c1ccc(OCC(N)=O)cc1)C(=O)NC1CC1 | 19 | 10 | -0.7 | 0 | 5 | -1.7 | 2 | 0.7 | -3 | -8 |
| 46 | Cc1ccc(CNC(=O)Cn2cc(C(F)(F)F)ccc2=O)cc1 | 10 | 11 | 0.9 | -8 | 7 | -3.6 | -4 | -1.6 | 26 | -8 |
| 47 | O=c1[nH]c(C2C3CC4CC(C3)CC2C4)nc2ccccc12 (configuration not stated) | 10 | 10 | -5.2 | -4 | -10 | -0.4 | 2 | -0.3 | -2 | 4 |
| 48 | NC(=O)NOCc1ccccc1F | 9 | 7 | 1.7 | 4 | -8 | 6.9 | -6 | -0.4 | -8 | -11 |
| 49 | Clc1ccc(OCc2nn[nH]n2)cc1 | 8 | 10 | 1.0 | -2 | 1 | 0.5 | -1 | -0.7 | -2 | -6 |
| 50 | C/C(=N\N=C1\NC(=O)CC(C(=O)O)S1)c1cccs1 (configuration not stated) | nt | nt | nt | 7 | -6 | -4.4 | -1 | 0.2 | 4 | -10 |
| 51 | Cc1ccc(-n2ncc3c(=O)n(CC(=O)N4CCN(c5ccccc5)CC4)cnc32)cc1C | 12 | 11 | 1.2 | -6 | -3 | -4.5 | 8 | -0.5 | 4 | 7 |
| 52 | CC(C)c1ccc(C(=O)N(c2ccccn2)C(C)c2ccco2)cc1 (configuration not stated) | nt | nt | nt | -2 | -39 | 1.0 | -4 | 0.2 | nt | 20 |
| 53 | Cc1cccc2c(N)c3c(nc12)N(C)CC3 | 14 | 13 | 2.6 | -1 | -6 | 2.1 | 13 | 0.4 | 21 | 8 |
| 54 | CCN(CC)CCCNC1CCS(=O)(=O)C1 (configuration not stated) | nt | nt | nt | 25 | 5 | 2.9 | -2 | -0.5 | 1 | 7 |
| 55 | CC(=O)Nc1ccc(Oc2ncccn2)c(Cl)c1 | nt | nt | nt | 1 | 19 | -3.5 | -4 | 0.0 | 1 | -4 |
| 56 | Cc1cc(N/N=C/c2ccccc2Br)nc2ccccc12 | 6 | -2 | 0.1 | 12 | -1 | -2.6 | 0 | 0.1 | -21 | ? |
| 57 | Cc1ccc(C(=O)CN(Cc2ccccc2)C2=NCCS2)cc1 | 2 | -3 | -4.9 | -1 | -10 | 2.7 | -1 | -0.2 | -4 | -7 |

A portion of the library (hit frequency here may not be typical).
